AID504770 = growth inhibition of E. coli YBA685, primary screen, V. cholerae RctB inhibitors; E. coli YBA685 rctB-dependent plasmid, OD600 growth, 3 h; stronger effect = lower value; z-score (test concentration not listed); actives 0.27% (n = 130,000);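 active = z-score under -2 on both plates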;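 also: wells of about 30 µL received 100 nL stock; score is relative to mean and SD of the test wells; the first replicate is given; strong numbers were not always called active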
CapD inh = Bacillus anthracis CapD inhibitors, primary screen, biochemical, fluorescence intensity | CapD gamma-glutamyltranspeptidase (Bacillus anthracis Ames Ancestor) | purified CapD enzyme, fluorescence intensity read-out; stronger effect = lower value; some hits fall short of the stated cut | z-score (no concentration beside the values) | actives 0.23% (n = 140,000);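 active = z-score under -4 in either of two replicates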;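 also: stock transfer was 100 nL into about 40 µL; score is relative to mean and spread of the plate; one replicate is shown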
* hit, by the source's call; / = not tested or not shown.

Values run as follows: AID504770	CapD inh
> CC(C)CN(C(=O)CN1CCC(C)CC1)c1c(N)n(CC(C)C)c(=O)[nH]c1=O
    0.2	/
> Cc1cc2c(cc1C)C(C)CC(C)(C)N2 (centres undefined)
    0	/
> O=C(Nn1c(-c2ccc(Br)cc2)nc2ccccc2c1=O)c1ccccc1[N+](=O)[O-]
    /	-0.2
> CCNC(=O)N1c2ccccc2Sc2ccccc21
    -1.3	0.09
> Cc1onc(-c2ccccc2)c1-c1csc(CC#N)n1
    -0.35	0.1
> O=C(CCCn1c(SCC(=O)Nc2ccccc2C(F)(F)F)nc2ccccc2c1=O)NCCCN1CCOCC1
    /	0.34
> CC(C)CS(=O)(=O)c1oc(-c2cccs2)nc1S(=O)(=O)c1ccccc1
    0.8	20
> CCOC(=O)C1CCCN(c2ncnc3c2cnn3-c2ccc(OC)cc2)C1 (centres undefined)
    /	2
> NC(=O)NC(Cc1ccccc1)C(=O)NC1CCCC1 (centres undefined)
    -0.65	/
> Cc1nn2c3ccccc3n(CCN3CCCCC3)c2nc1=O
    /	3.5
> O=C(O)C(O)C(O)C(=O)Nc1ccc(Cl)cc1 (centres undefined)
    -0.7	0.085
> O=C1OCCN/C1=C/C(=O)c1ccccc1
    -0.55	-3.5
> Cc1ccc(S(=O)(=O)Nc2cc(C(=O)NC3CCCC(C)C3C)ccc2N2CCCCC2)cc1 (centres undefined)
    -0.25	1.2
> CC1CCN(C(=O)COC(=O)C2(S(=O)(=O)c3ccc(Br)cc3)CCCC2)CC1
    1.1	/
> Cc1cc(C)c(C#N)c(NC2CCCCC2)n1
    0.35	/
> Cc1sc2ncnc(OCc3ccc(C#N)cc3)c2c1C
    -0.5	/
> CCSc1nnc2c(=O)n(C)c(=O)n(C)c2n1
    -0.45	-2.9
> CN1CCN(c2ccc(S(C)(=O)=O)cc2N)CC1
    /	2.1
> CC(C)(C)C1CCc2c(sc3nc(-c4ccccc4Cl)oc(=O)c23)C1 (centres undefined)
    /	0.025
> O=C1CSc2sc(=O)sc2SC1
    /	0.16

Compound profiles, from the list above.
CN1CCN(c2ccc(S(C)(=O)=O)cc2N)CC1 across the screens: AID504770 = /; CapD inh = 2.1
O=C(O)C(O)C(O)C(=O)Nc1ccc(Cl)cc1 (centres undefined) across the screens: AID504770 = -0.7; CapD inh = 0.085

Further compounds:
Values run as follows: AID504770	CapD inh
> O=C1/C(=C\c2ccccc2)S/C(=N\c2ccccn2)N1c1ccccc1
    /	-0.08
> O=C(NC(c1ccccc1)c1c(O)ccc2ccccc12)C1CCCCC1 (centres undefined)
    1.1	22
> O=C(Nc1nc(C23CC4CC(CC(C4)C2)C3)cs1)c1c(O)c2cccc3c2n(c1=O)CC3
    /	-0.32
> COc1ccc(Cl)cc1NC(=O)Cc1coc2cc(C)cc(C)c12
    1.9	-0.87
> CC(C)(C)c1cc(CN2CCCCC2)cc(C(C)(C)C)c1O
    /	-0.23
> CCN1C(=O)NC(c2ccc([N+](=O)[O-])cc2)C(C(=O)OCCOc2ccccc2)=C1C (centres undefined)
    /	-2
> CCOC(=O)c1[nH]c(=O)[nH]c1CN(Cc1ccco1)Cc1[nH]c(=O)[nH]c1C(=O)OCC
    -0.9	0.43
> Cn1cnc(S(=O)(=O)NCc2csc(-c3cccs3)n2)c1
    -0.5	34
> O=C(NCc1ccco1)c1csc2c1CCCC2
    -1.1	0.22
> CC(=O)N1c2ccccc2N(C(C)=O)C(C)C1C (centres undefined)
    -0.5	/
> CCc1ccc(N2CCN(S(=O)(=O)c3ccccc3)CC2)cc1
    0.9	0.4
> CCOC(=O)c1cc2cccc(NC(=O)c3c(OC)cccc3OC)c2[nH]1
    /	6
> CCn1c(CSc2nc3ccccc3s2)nnc1SC(C)C(=O)Nc1ccc(N(C)C)cc1 (centres undefined)
    1.9	/
> CS(=O)(=O)c1ccc(/C=C/C(=O)Nc2ccccn2)cc1
    /	-0.02
> COC(=O)C1=CN(CC23CC4CC(CC(C4)C2)C3)C=C(C(=O)OC)C1c1cccs1
    0.35	48
> Cc1cc(C)cc(COn2c(-c3ccccc3)nc3ccc([N+](=O)[O-])cc32)c1
    /	0.42
> COc1ccccc1N1CCN(C(C)C(=O)NCC2CCCCC2)CC1 (centres undefined)
    -0.2	/
> O=S(=O)(c1cccc(Br)c1)N1CCN(c2cccc(Cl)c2)CC1
    /	-0.33
> COc1cc(S(=O)(=O)N2CC(C)OC(C)C2)c(OC)cc1Cl (centres undefined)
    1.8	/
> Cc1cccc(C(=O)Nc2nnc(-c3ccccc3C)s2)c1
    0.25	-1.2

Next part.
Values run as follows: AID504770	CapD inh
> CC(=O)OCC(=O)[C@@]12OC(C)(C)O[C@@H]1CC1C3C[C@H](F)C4=CC(=O)C=C[C@]4(C)[C@@]3(F)[C@@H](O)C[C@@]12C (some centres undefined)
    0.65	/
> N#CC[N+]12CCN(CC1)CC2
    0.9	-0.32
> COc1cc(C2C(C#N)=C(N)Oc3n[nH]c(-c4ccc(Br)cc4)c32)ccc1OC(=O)c1ccco1 (centres undefined)
    /	0.13
> Fc1ccc(-c2nc3c4ccccc4c4ccccc4c3[nH]2)cc1
    1	38
> CC(C)OC(=O)CSc1nnc(-c2ccc(Cl)cc2Cl)o1
    0.05	0.31
> Cc1cc(C(=O)Cn2cnc3ccccc3c2=O)c(C)n1-c1ccccc1
    1	/
> CCCCn1c(CNC(=O)c2ccc([N+](=O)[O-])cc2)nnc1SCC(=O)Nc1sc2c(c1C(=O)OCC)CCC2
    /	-0.14
> CCCN1CCC(N(C2CC2)S(=O)(=O)c2ccc(NC(=O)Nc3ccccc3OC)cc2)CC1
    /	-0.095
> CCCS(=O)(=O)c1c(S(=O)(=O)CCC)c2c3ccccc3ccn2c1C(=O)c1ccc(F)cc1
    /	-0.8
> C/C(=N\OC(=O)c1ccc(C(F)(F)F)cc1)c1ccc[nH]1
    -0.9	-1.1
> CC(C)=C1C2C=CC1C1C(=O)N(c3ccc4c(c3)OCO4)C(=O)C21 (centres undefined)
    0.4	0.71
> COc1ccc(OCC(O)CNC(=O)c2ccc(OC(F)(F)F)cc2)cc1 (centres undefined)
    -0.25	0.56
> COc1ccc2c(-c3ccccc3)cc(=O)oc2c1OC
    0.15	-1
> Cn1c(NN)nc2sc3c(c2c1=O)CCCC3
    -0.35	/
> O=C(O)Cc1ccccc1C(=O)N1CCN(c2cc(C(F)(F)F)nc3ccccc23)CC1
    /	2.8
> Clc1cc(Cl)cc(NC2=NCCS2)c1
    0.4	-0.15
> Cc1nn(-c2ccccc2)c(C)c1C(=O)N1CCCc2ccccc21
    -0.45	/
> COc1cc(OC)c2c(=O)c(-c3ccc(Cl)cc3)coc2c1
    -0.65	2.4
> Cc1ccc(S(=O)(=O)N(CC(=O)Nc2ccc3c(c2)OCO3)c2cccc(Br)c2)cc1
    /	-0.86
> Cc1ccccc1C(=O)Nc1nc2c(C)csc2c(=O)s1
    -0.05	-1.8

The results go on.
Values run as follows: AID504770	CapD inh
> COc1ccc(C(=O)c2sc3nc(-c4ccccc4)cc(C(F)(F)F)c3c2N)cc1
    /	-0.005
> Cn1ccnc1S(=O)(=O)/C(C#N)=C/c1ccc(C(F)(F)F)cc1
    0.2	0.75
> O=C(CSc1nnc(N2C(=O)c3ccccc3C2=O)s1)NC1CC1
    -0.75	-0.68
> N#Cc1cccc(NC(=O)CC(NC(N)=O)c2ccccc2Cl)c1 (centres undefined)
    -1.4	/
> CC(C)c1nc2ccc(NC(=O)C3CCCCC3)cc2[nH]1
    1.5	-0.37
> CCN1CCN(c2ccc(N)cc2)CC1
    -1.9	-0.34
> Cc1cc(OC(=O)c2nn(-c3ccccc3)nc2C)n(-c2ccccc2)n1
    0.5	-0.035
> CCCc1ccc(S(=O)(=O)NC2CCN(Cc3c(F)cccc3Cl)C2)cc1 (centres undefined)
    /	-0.42
> O=C(O)CSCc1nc(-c2cnc3n(c2=O)CCS3)no1
    1.6	-0.68
> O=C(c1ccccc1Cl)N1N=C(C2CCCCC2)CC1(O)C(F)(F)F (centres undefined)
    /	0.16
> FC(F)(F)C1NCCc2c1[nH]c1ccccc21 (centres undefined)
    0.05	0.36
> CC1CCN(C(=O)/C=C/c2ccc3c(c2)OCO3)CC1
    -0.35	-0.92
> CSc1nc(N)nc(-c2cccs2)n1
    /	0.67
> CCOC(=O)c1cc(-c2csc(CS(=O)(=O)Cc3cccc(C(F)(F)F)c3)n2)on1
    -0.1	0.25
> CC(C)c1ccc(NC(=O)NC(=O)c2ncon2)cc1
    -0.6	0.33
> N#C/C(=C\c1cc2ccccc2o1)S(=O)(=O)c1ccccn1
    -0.35	0.12
> CCCCn1nnc2sc3c(c2c1=O)CCCC3
    -0.05	7.8
> CC(C)(C)OC(=O)NC(Cc1cnc[nH]1)C(=O)N/N=C/c1ccc(Oc2ccccc2)cc1 (centres undefined)
    /	-0.43
> O=[N+]([O-])c1ccc(-c2noc(-c3cccs3)n2)cc1
    /	-0.06
> CC(C)(C)NC(=O)N1CCC(C(N)=O)CC1
    -0.4	0.54

In the list so far, five have a furan ring, fused or not:
Values run as follows: AID504770	CapD inh
> COc1ccc(Cl)cc1NC(=O)Cc1coc2cc(C)cc(C)c12
    1.9	-0.87
> CCOC(=O)c1[nH]c(=O)[nH]c1CN(Cc1ccco1)Cc1[nH]c(=O)[nH]c1C(=O)OCC
    -0.9	0.43
> O=C(NCc1ccco1)c1csc2c1CCCC2
    -1.1	0.22
> COc1cc(C2C(C#N)=C(N)Oc3n[nH]c(-c4ccc(Br)cc4)c32)ccc1OC(=O)c1ccco1 (centres undefined)
    /	0.13
> N#C/C(=C\c1cc2ccccc2o1)S(=O)(=O)c1ccccn1
    -0.35	0.12

Next structures.
Values run as follows: AID504770	CapD inh
> O=C1CCCC/C1=C/NCc1ccccc1
    -1.1	-3.1
> Cc1ccccc1CN1CCN(CC(=O)NCCc2ccc(Cl)cc2)C1=O
    -0.2	0.03
> O=C(O)CCC(=O)N1CCN(C2c3ccccc3-c3ccccc32)CC1
    -0.95	0.38
> CCOc1ncccc1C(=O)OCCN1C(=O)c2ccccc2C1=O
    -0.65	/
> CCCNC(=O)N1CCc2c([nH]c3ccccc23)C1c1ccccc1F (centres undefined)
    -0.6	-2.2
> CN(C)c1ccc(-c2nnc(-c3ccc(Cl)cc3)o2)cc1
    0.95	/
> Cc1c(/C=N/NC(=O)c2ccc([N+](=O)[O-])cc2Cl)sc2ccccc12
    /	-1
> CC(C)(C)C1CCC(C(=O)OCC(=O)c2ccc[nH]2)CC1 (centres undefined)
    0.05	/
> CCOc1ccccc1NC(=O)Cn1c(=O)oc2cc(S(=O)(=O)NC3CCCC3)ccc21
    0.95	0.01
> N#Cc1c(Cl)cccc1Oc1ccc(-c2ccn[nH]2)cc1
    -0.5	0.42
> CO/N=C/NC(=O)C(c1ccc(F)cc1)c1cccc(C(=O)c2ccccc2)c1 (centres undefined)
    /	-0.59
> COc1cccc(N(C(=O)c2ccco2)c2nc3ccccc3s2)c1
    0.7	/
> O=C(CN1C2=NCCN2c2ccccc21)c1ccc(F)cc1
    /	-0.23
> COc1cc(C(=O)NN2S(=O)(=O)c3ccccc3S2(=O)=O)cc(OC)c1OC
    /	-0.55
> COc1cc(-c2nc3ccccc3c(=O)n2NC(=O)c2cccnc2Cl)cc(OC)c1OC
    /	-0.41
> CCOC(=O)c1c(NC(=O)C(C)Sc2nnc(CNC(=O)COc3ccc(Cl)cc3)n2C)sc2c1CCCCC2 (centres undefined)
    /	-0.35
> Cc1cc(C)cc(C(=O)OCC(=O)c2cc(C)n(C)c2C)c1
    0.5	/
> Cc1ccc(NC(=O)NC(=O)CSc2nnc(C)n2C2CCCCC2)c(C)c1
    0.1	/
> O=C1CC2c3ccccc3C1C1C(=O)N(c3ccc([N+](=O)[O-])cc3)C(=O)C21 (centres undefined)
    /	-0.09
> CCNCc1ccc(OCc2ccccc2)cc1
    -0.5	/

Other records.
Values run as follows: AID504770	CapD inh
> O=C1Nc2ccccc2S/C1=C/c1ccc(C(=O)N2CCC3(CC2)OCCO3)cc1
    -0.05	-0.79
> O=C(NCc1ccc(Cl)cc1)c1ccc2c(c1)[nH]c(=S)n1c3ccccc3nc21
    -0.4	0.03
> OC(c1ccccc1)(c1ccccc1)C1CCCN1 (centres undefined)
    0.6	1.5
> CC1=NN(c2ccccc2)C(=O)C1C(c1cccc(Cl)c1)C(C#N)C#N (centres undefined)
    /	-0.03
> CCCC(CC(=O)N1CCN(c2ccccc2Cl)CC1)n1ccnc1 (centres undefined)
    -1.1	/
> C/C(N)=C(/C#N)C(=O)CSc1cc(C)c(C#N)c2nc3ccccc3n12
    -0.15	/
> Cc1nnsc1C(=O)Nc1ccc2c(c1)OCCO2
    -0.5	-0.26
> O=C(COc1coc(CN2CCc3ccccc32)cc1=O)NC1CCCC1
    -0.05	/
> CN1CCC(N(C)C(=O)C23CC4CC(CC(C4)C2)C3)CC1
    -0.05	-0.92
> CCN1CCc2nc(SCC(=O)Nc3ccc(OC)cc3)c(C#N)cc2C1
    0.4	0.44
> CC(=O)Nc1ccccc1C(=NC1CCCCC1)C(=O)NC1CCCCC1
    1.8	0.17
> c1ccc(-c2nnc(C3CC3)nc2-c2ccccc2)cc1
    -0.2	/
> Cn1nc(C(C)(C)C)cc1N
    -0.4	0.14
> O=C(CCc1c[nH]c2ccccc12)N(CCCCO)Cc1ccccc1
    /	-0.71
> O=C(CN1CCN(Cc2ccccc2)CC1)NN=C/C=C\c1ccco1
    -0.5	-2

Bioassay records from PubChem BioAssay.
